# High-throughput results deposited in PubChem BioAssay by several laboratories.
# FPRL1 ligand = human FPRL1 ligands by binding competition, primary screen, cell-based, FPR counter-screen, flow cytometry; hit rate 0.3% among 24,000; AID 441, 2006; inhibition, %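 (tested at 6.7 µM)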; N-formyl peptide receptor 2 (Homo sapiens), P25090; FPRL1-expressing cells, fluorescent ligand binding inhibition;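 note: 0% = buffer alone and 100% = receptor blocker peptide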
# Target sequence (P25090 whole entry, looked up): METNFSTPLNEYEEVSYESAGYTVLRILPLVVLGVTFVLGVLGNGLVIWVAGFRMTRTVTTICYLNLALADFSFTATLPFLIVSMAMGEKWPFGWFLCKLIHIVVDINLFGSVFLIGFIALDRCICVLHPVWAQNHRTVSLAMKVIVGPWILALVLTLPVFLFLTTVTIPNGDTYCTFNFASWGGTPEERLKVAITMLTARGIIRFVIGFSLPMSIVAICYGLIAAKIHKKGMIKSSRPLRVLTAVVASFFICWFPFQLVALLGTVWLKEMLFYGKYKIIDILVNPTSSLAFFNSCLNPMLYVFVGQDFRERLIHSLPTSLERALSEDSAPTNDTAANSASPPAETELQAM
# VCAM-1 down = inhibitors of TNFa-induced VCAM-1 surface display, cell-based, plate reader, pooled HUVEC, TNFa stimulus (AID 454); HUVEC TNFa-induced VCAM-1 surface immunofluorescence, plate reader; numbers were filed only for top-ranked candidate wells; inhibition, % at 5 µM; hit rate 0.2% among 10,000;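 active = compound among top-ranked inhibitors of TNF-induced VCAM-1 adhesion protein staining, with the hit upheld by image or statistical review; inactive = the rest, including hits rejected on review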;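 note: 0% = TNFa with vehicle and 100% = cells without TNFa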
# VCAM-1 imaging = inhibitors of TNFa-induced VCAM-1 surface display, imaging, high-content imaging, pooled HUVEC, TNFa stimulus (AID 456). HUVEC TNFa-induced VCAM-1 surface expression, immunofluorescence imaging; numbers were filed only for top-ranked candidate wells. one-dose inhibition, % at 5 µM; IC50 in µM for titrated hits. hit rate 0.2% among 10,000;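 active = top tenth filtered wells with inhibition above zero that passed visual or statistical confirmation; inactive = the rest, including hits rejected on review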;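 note: 0% = stimulated vehicle wells and 100% = unstimulated cells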
# VCAM-1 up imaging = enhancers of VCAM-1 display on endothelial cells, imaging, high-content imaging, pooled HUVEC, TNFa stimulus (AID 457). calls only. hit rate 0.2% among 10,000. Pooled HUVEC, TNFa-induced VCAM-1 immunofluorescence imaging; hits of this screen are not shown here;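 active = a top-ranked rise in VCAM-1 staining upheld on image or statistical review; inactive = the rest, including candidates rejected on review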;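 note: compounds tested at 5 µM in the well; cells exposed to compound for 24 hours before fixing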
# FPR binder = human FPR ligands by binding competition, primary screen, cell-based, FPRL1 counter-screen, flow cytometry | inhibition, %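 (tested at 6.7 µM)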 | fMet-Leu-Phe receptor (Homo sapiens), P21462 | hit rate 0.74% among 24,000 | FPR-expressing cells, fluorescent ligand binding;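 note: 0% = buffer wells and 100% = receptor blocker peptide wells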
# Target sequence (P21462 whole entry, looked up): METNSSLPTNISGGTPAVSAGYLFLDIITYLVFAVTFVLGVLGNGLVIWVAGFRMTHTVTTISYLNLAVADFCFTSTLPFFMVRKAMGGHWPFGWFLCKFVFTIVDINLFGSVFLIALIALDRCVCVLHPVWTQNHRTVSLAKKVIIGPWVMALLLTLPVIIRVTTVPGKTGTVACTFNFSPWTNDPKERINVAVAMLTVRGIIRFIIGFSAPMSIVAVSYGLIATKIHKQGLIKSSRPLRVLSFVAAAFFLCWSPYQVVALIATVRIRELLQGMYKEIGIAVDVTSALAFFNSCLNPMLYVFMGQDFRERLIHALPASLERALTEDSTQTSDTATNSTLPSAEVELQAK
# * hit, by the source's call; i = inactive; . = not tested or not shown.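 Rule for the calls, unless noted: active = mean above 30%; inconclusive = self-fluorescent; inactive = the rest.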 A portion of the library (hit frequency here may not be typical).
# Start of the listing, in advance:
no.	Compound	FPRL1 ligand	VCAM-1 down	VCAM-1 imaging	VCAM-1 up imaging	FPR binder
1	O=C(CSc1nc2ccccc2c(=O)n1NC(=O)Cc1ccccc1)NCc1ccco1	0	.	.	.	6
2	CCOC(=O)CNc1c(-c2ccc(Cl)cc2)nc2cnccn12	-5	.	.	.	-48

# The listing, from the start:
no.	Compound	FPRL1 ligand	VCAM-1 down	VCAM-1 imaging	VCAM-1 up imaging	FPR binder
1	O=C(CSc1nc2ccccc2c(=O)n1NC(=O)Cc1ccccc1)NCc1ccco1	0	.	.	.	6
2	CCOC(=O)CNc1c(-c2ccc(Cl)cc2)nc2cnccn12	-5	.	.	.	-48
3	O=C(Nc1cccc(NC(=O)c2ccc(-c3cccc(Br)c3)o2)c1)c1ccco1	-14	.	.	.	-2
4	CCOC(=O)N1CCN(c2cc(=O)n(-c3cccc(Br)c3)c(=O)[nH]2)CC1	3	i	i	i	0
5	Cc1cc(Nc2cccc(F)c2)n2nc(C)nc2n1	4	.	.	.	1
6	CCOc1ccc(NC(=O)C2CCN(S(=O)(=O)c3c(C)n[nH]c3C)CC2)cc1	0	.	.	.	2
7	Cc1ccc(NC(=O)CSc2nnc(CNC(=O)c3c(F)cccc3Cl)o2)cc1	9	i	i	i	0
8	COc1ccc(NC(=O)c2oc3ccccc3c2NC(=O)c2ccc3c(c2)OCO3)cc1	4	.	.	.	3
9	Cc1cc(/C=N\O)c(C)n1-c1ccncc1	0	i	i	i	12
10	CCOC(=O)N1CCN(C(=O)c2ccc3c(=O)n(CCC4=CCCCC4)c(=O)[nH]c3c2)CC1	0	.	.	.	10
11	Cc1ccc(CS(=O)(=O)CCC(=O)NCC2CCCO2)cc1 (stereo not drawn)	-2	i	i	i	-3
12	O=C(c1ccccc1)N1CCCCC(Sc2nnnn2-c2ccccc2)C1=O (stereo not drawn)	-5	i	i	i	-11
13	CN(C)C(=O)c1ccc(COc2ccccc2Br)o1	0	i	i	i	1
14	CN/C(=C/[N+](=O)[O-])NCCSCc1ccc(CN(C)C)o1	1	i	i	i	2
15	CCn1cc(C(=O)N2CC=C(c3ccccc3)CC2)c(=O)c2ccc(C)nc21	1	.	.	.	8
16	c1ccc(-c2cc(CSc3nc4ccccc4[nH]3)on2)cc1	0	i	i	i	-2
17	COc1cccc(-c2nn(C)c3sc(C(=O)N4CCOCC4)cc23)c1	-3	.	.	.	4
18	COc1ccc(NC(=O)CCNC(=O)Cn2ccc3ccccc3c2=O)c(OC)c1	0	i	i	i	0
19	CCOC(=O)CNC(=O)Nc1nnc(-c2ccc(OCC)cc2)o1	0	i	i	i	-9
20	CS(=O)(=O)N1CCC(C(=O)NCCN2CCN(Cc3ccccc3)CC2)CC1	2	.	.	.	1
21	Cc1ccc(CC2CC(=O)N(c3cc(C)on3)C2=O)cc1 (stereo not drawn)	2	.	.	.	1
22	CCCCOC(=O)C1C2C=CC3(CN(CCc4ccccc4)C(=O)C13)O2 (stereo not drawn)	-11	.	.	.	-14
23	Cn1c(C(=O)O)c(CC(=O)NCC2COc3ccccc3O2)c2ccccc21 (stereo not drawn)	-7	.	.	.	1
24	Cc1cccc(-c2nc(CS(=O)CC(=O)NCC3CCCO3)c(C)o2)c1 (stereo not drawn)	-2	.	.	.	-4
25	CC(=O)c1cccc(NC(=O)CCS(=O)(=O)c2cccc3nonc23)c1	8	.	.	.	-2
26	COc1ccc(CN(CC(=O)NCC2CCCO2)C(=O)CCC(=O)Nc2cc(C)on2)cc1 (stereo not drawn)	1	i	i	i	-11
27	O=C(CSc1nnc(CNC(=O)c2c(F)cccc2Cl)o1)Nc1ccccc1	-3	.	.	.	2
28	Cc1cc(C)c(OCC(=O)Nc2ccc3c(c2)OCO3)cc1C	-1	i	i	i	0
29	COc1ccc(N(CC(=O)N2CCc3ccccc3C2)S(=O)(=O)c2c(C)[nH]c(=O)[nH]c2=O)cc1	-3	.	.	.	-2
30	CSCCOC(=O)c1[nH]c2c(c1C)C(=O)CC(c1ccco1)C2 (stereo not drawn)	1	.	.	.	5

# Screen by screen, as entered above.
# Compounds 9 to 12 in FPR binder, in turn: 12, 10, -3, -11

# (next part)
no.	Compound	FPRL1 ligand	VCAM-1 down	VCAM-1 imaging	VCAM-1 up imaging	FPR binder
31	Cc1noc(C)c1S(=O)(=O)N1CCCC(C(=O)NCc2ccccn2)C1 (stereo not drawn)	2	.	.	.	0
32	COc1cccc(Nc2c(F)c(OC)c(F)c(F)c2C(=O)O)c1	-1	.	.	.	2
33	Cc1[nH]c(=S)[nH]c(=O)c1Cc1ccccc1	-5	.	.	.	-2
34	CC12C=CC3(CN(Cc4ccccc4)C(=O)C3C1C(=O)NC1CC1)O2 (stereo not drawn)	-4	.	.	.	0
35	COc1ccc(OC)c(NC(=O)CSc2nnc(Cc3cccn3C)n2CCc2ccccc2)c1	-1	.	.	.	0
36	CC(C)NC(=O)C1CCN(Cc2cnn(-c3ccccc3)c2-n2cccc2)CC1	3	.	.	.	-8
37	CN(c1cccc(NS(=O)(=O)c2cccs2)c1)S(C)(=O)=O	-7	i	i	i	12
38	COC(=O)c1cc(=O)nc2sc(-c3ccc(F)cc3)nn12	-3	.	.	.	-7
39	Cc1nc(SCC(=O)N2CCC(C(N)=O)CC2)n[nH]1	6	i	i	i	-3
40	CCOc1ccccc1NC1c2ccccc2C(=O)N1c1ccc(C)cn1 (stereo not drawn)	10	.	.	.	-6
41	COc1cc(C(=O)N2CCC(NC(=O)C(Cc3ccc(C)cc3)NC(C)=O)CC2)cc(OC)c1OC (stereo not drawn)	-8	i	i	i	-8
42	O=C1Nc2c(Br)cc(Br)cc2C1(O)N1CCOCC1 (stereo not drawn)	8	.	.	.	-7
43	CC1Cc2nc(SCC(=O)NCC3CCCO3)n(Cc3ccccc3)c(=O)c2S1 (stereo not drawn)	-1	.	.	.	4
44	CN1CCC(NC(=O)c2cccs2)CC1	-5	i	i	i	0
45	CCCC(=O)c1cc2cc(Cl)ccc2oc1=O	5	.	.	.	-1
46	O=C(Nc1ccc(S(=O)(=O)N2CCc3ccccc32)cc1)c1ccc2c(c1)OCO2	7	i	i	i	-2
47	CCOC(=O)c1[nH]c(C)c(C(=O)NC2CCCC2)c1C	-4	.	.	.	-2
48	O=C(Cn1cc2c(n1)CCCCC2)Nc1ccc(F)cc1F	2	.	.	.	-3
49	O=C1Nc2cc(Cl)ccc2C1(N1CCNCC1)C(F)(F)F (stereo not drawn)	-2	.	.	.	-6
50	O=C(c1ccco1)N1CCN(C/C=C/c2ccccc2)CC1	-7	.	.	.	-7
51	COc1ccc(Br)cc1-c1noc(-c2ccccc2)n1	-8	i	i	i	-4
52	CC1(C)CC(O)C(CCC(O)c2ccccc2)C(C)(C)N1 (stereo not drawn)	7	.	.	.	5
53	O=C(C1CC1)N1CCc2cc(Br)cc(S(=O)(=O)NCCN3CCOCC3)c21	2	.	.	.	4
54	Cc1ccc(Cl)cc1N1CCN(C(=O)C2CCN(S(=O)(=O)c3cccnc3)CC2)CC1	-5	.	.	.	-5
55	CCOC(=O)c1sc(NC(=O)C(CC)Sc2nnc3c4ccccc4n(CC)c3n2)nc1C (stereo not drawn)	1	.	.	.	12
56	COc1cccc(-c2cc(C(=O)NC3CCCC3)no2)c1	-2	.	.	.	-1
57	CC(=O)c1ccc(NC(=O)CSc2nc3nc(C)cc(C)n3n2)cc1	-2	.	.	.	0
58	Cc1noc(C)c1S(=O)(=O)N(CCc1ccccc1)Cc1ccccc1	-5	.	.	.	-1
59	COC(=O)c1ccc(NC(=O)C2CCCCC2C(=O)O)cc1 (stereo not drawn)	-2	.	.	.	-4
60	COc1ccc(-c2noc(-c3ccccc3C(=O)NCc3ccco3)n2)cc1	3	i	i	i	-4
61	CCCS(=O)(=O)N1CCCC(C(=O)NCCN(C)Cc2ccccc2)C1 (stereo not drawn)	0	.	.	.	3
62	O=C(NCCN1CCOCC1)c1ccc(CS(=O)(=O)c2ccc(Cl)cc2)o1	6	.	.	.	1
63	Fc1ccccc1-c1nc(-c2ccccc2)no1	-18	i	i	i	-5
64	CCS(=O)(=O)N1CCC(C(=O)NCc2ccccc2OC)CC1	7	.	.	.	-1
65	CN1CCN(c2cc3c(c4c2[nH]c2ccccc24)C(=O)CC(C)(C)C3)CC1	-1	.	.	.	-10
66	Cc1ccc(NC(=O)CN(C)S(=O)(=O)c2cccc3nsnc23)cc1Cl	-3	i	i	i	-2
67	c1ccc(-c2cc(N3CCCCC3)ncn2)cc1	-1	i	i	i	9
68	CCC1c2ccc(C)n2CCN1C(=O)Nc1ccccc1OC (stereo not drawn)	0	i	i	i	-2
69	CC1CCCN(CCCNC(=O)CCn2nc(-c3ccccc3)ccc2=O)C1 (stereo not drawn)	-6	.	.	.	-5
70	COc1ccccc1C(=O)Nc1ccc(N2CCN(S(C)(=O)=O)CC2)cc1	-2	i	i	i	-6
71	CCn1cc(C(=O)O)c(=O)c2cc(F)c(N3CCN(C(=O)Nc4ccccc4)CC3)cc21	0	i	i	i	-4
72	O=C(COC(=O)c1ccco1)NCc1cccs1	-2	i	i	i	8
73	COc1ccc2nc(NC(=O)C3CCCN(S(=O)(=O)c4cccc5nsnc45)C3)sc2c1 (stereo not drawn)	-1	i	i	i	-13
74	O=C(c1ccccc1)N1CC(COc2ccccc2)OC(c2ccco2)O1 (stereo not drawn)	9	.	.	.	9
75	COCCN1C(=O)c2oc3c(C)cc(C)cc3c(=O)c2C1c1cccc(O)c1 (stereo not drawn)	-11	i	i	i	-4
76	CC1CCN(C(=O)CSc2nnc(Cc3cccn3C)n2-c2ccc(F)cc2)CC1	-5	.	.	.	-3
77	CCN(CCNC(=O)C1CCN(Cc2nc(-c3cccc(Cl)c3)oc2C)CC1)c1ccccc1	14	.	.	.	10
78	COc1cccc(N2CCN(C(=O)c3[nH]c(C)c(C(C)=O)c3C)CC2)c1	-7	.	.	.	-3
79	CCn1ncc(C2=NOC(C(=O)Nc3cccnc3)C2)c1C (stereo not drawn)	10	.	.	.	1
80	CCN(C(=O)CN1CCN(c2ccccc2OC)CC1)c1c(N)n(Cc2ccccc2)c(=O)[nH]c1=O	-1	i	i	i	-2

# (cont.)
no.	Compound	FPRL1 ligand	VCAM-1 down	VCAM-1 imaging	VCAM-1 up imaging	FPR binder
81	O=C(c1ccccc1)C1C(=O)c2ccccc2C1=O	-2	.	.	.	4
82	COc1cc(C2C(C(=O)c3ccc(C)o3)=C(O)C(=O)N2CCc2ccccc2)ccc1O (stereo not drawn)	-3	.	.	.	70*
83	O=C(CCN1C(=O)C2C3C=CC(C3)C2C1=O)N1CCN(c2cccc(Cl)c2)CC1 (stereo not drawn)	-4	.	.	.	0
84	COC(=O)CSc1nnc(Cc2cc(=O)[nH]c(=O)[nH]2)n1-c1cccc(OC)c1	-1	.	.	.	2
85	O=C1CCCC2=C1C1(CCCC1)N=C(Nc1nc3ccccc3s1)N2	-22	i	i	i	-3
86	COc1ccc2c(c1)C1(C)CC(C)(C)N2C(=O)N1c1ccccc1 (stereo not drawn)	18	i	i	i	6
87	COC(=O)CSc1ccc2c(N)c(C(=O)OC)sc2c1	1	.	.	.	8
88	CCOC(=O)N1CCN(C(=O)C2CCC(CNS(=O)(=O)c3ccccc3)CC2)CC1 (stereo not drawn)	3	.	.	.	4
89	CCN(CCNC(=O)CS(=O)(=O)Cc1nc(-c2cccc(OC)c2)oc1C)c1ccccc1	-7	i	i	i	8
90	C#CC(C)(C)NC(=O)CSc1nc2c(c(=O)n(C)c(=O)n2C)n1CCCC	1	.	.	.	-6
91	COc1ccc2[nH]cc(CCN=C3SCC(=O)N3C)c2c1	3	.	.	.	0
92	CC1CCc2nn(CC(=O)NCCN3CCOCC3)cc2C1 (stereo not drawn)	4	i	i	i	6
93	CC1=CC(=C2C(=O)c3ccccc3C2=O)C=C(C)N1C	-2	.	.	.	-4
94	COc1ccc(C2/C(=C(/O)c3ccccc3)C(=O)C(=O)N2CCO)cc1 (stereo not drawn)	-2	.	.	.	9
95	CCC(=O)Nc1c(C#N)c2nc3ccccc3nc2n1-c1ccccc1C	-2	i	i	i	19
96	O=C(NCCN1C(=O)C2C3C=CC(C3)C2C1=O)Nc1ccc(Br)cc1 (stereo not drawn)	0	.	.	.	3

# Given with two lines to a compound: entries from further up.
# The line under a structure holds: FPRL1 ligand	VCAM-1 down	VCAM-1 imaging	VCAM-1 up imaging	FPR binder
95) CCC(=O)Nc1c(C#N)c2nc3ccccc3nc2n1-c1ccccc1C
  -2	i	i	i	19
93) CC1=CC(=C2C(=O)c3ccccc3C2=O)C=C(C)N1C
  -2	.	.	.	-4
